Mtb betalactam – beta-lactam sensitization of Mtb H37Rv, H37Rv; AID 434955, 2010; inhibition, % at 25 µM; M. tuberculosis H37Rv growth with meropenem, percent inhibition; hits of this screen are not shown here; 330,000 compounds, 0.27% hits;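 active = about 74% or more and at least 40 points above the plate without the antibiotic, then above 30% in a dose series; inconclusive = first-round hits that could not be retested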;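 also: growth measured after seven days incubation then overnight dye step; 0% = bacteria only wells and 100% = bacteria with antibiotic; twin plates without the antibiotic show which effects depend on it; some results filed as inactive read as strong as hits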
YopH PTP inh – YopH tyrosine phosphatase inhibitors, primary screen, biochemical, fluorescence Ex485/Em525; YopH tyrosine phosphatase [Yersinia enterocolitica]; inhibition, %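 (about 10 µM by stock and volumes)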; 140,000 compounds, 0.16% hits;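 active = inhibition of 50% or more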;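 also: controls were vehicle for no effect and minimum signal wells for full effect; inactives centre near -20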
Mtb growth – M. tuberculosis H37Rv growth inhibitors, H37Rv strain (AID 1626). 220,000 compounds, 0.95% hits. inhibition, % at 10 µM, or IC50 in µM where a hit was titrated. M. tuberculosis H37Rv growth inhibition; higher % means a stronger effect;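 active = confirmed in a dose series; inconclusive = inhibition above 80% but not taken into the dose series; inactive = below 80% or under 30% at every dose of the series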;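 also: bacteria incubated seven days before Alamar blue readout; 0% = bacteria only wells and 100% = bacteria with antibiotic wells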
RecA intein inh – Mtb RecA intein splicing inhibitors, primary screen, biochemical, fluorescence, HTS | inhibition, %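 (about 9 µM by stock and volumes)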 | Protein RecA (Mycobacterium tuberculosis (strain ATCC 25618 / H37Rv)), P9WHJ3 | cell-free RecA intein splicing | 290,000 compounds, 0.75% hits; in the data active = inhibition above about 30%; inconclusive = no clear call, values can overlap the other calls;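 also: 0% = vehicle wells and 100% = reference inhibitor control wells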
Target sequence (P9WHJ3 whole entry, looked up): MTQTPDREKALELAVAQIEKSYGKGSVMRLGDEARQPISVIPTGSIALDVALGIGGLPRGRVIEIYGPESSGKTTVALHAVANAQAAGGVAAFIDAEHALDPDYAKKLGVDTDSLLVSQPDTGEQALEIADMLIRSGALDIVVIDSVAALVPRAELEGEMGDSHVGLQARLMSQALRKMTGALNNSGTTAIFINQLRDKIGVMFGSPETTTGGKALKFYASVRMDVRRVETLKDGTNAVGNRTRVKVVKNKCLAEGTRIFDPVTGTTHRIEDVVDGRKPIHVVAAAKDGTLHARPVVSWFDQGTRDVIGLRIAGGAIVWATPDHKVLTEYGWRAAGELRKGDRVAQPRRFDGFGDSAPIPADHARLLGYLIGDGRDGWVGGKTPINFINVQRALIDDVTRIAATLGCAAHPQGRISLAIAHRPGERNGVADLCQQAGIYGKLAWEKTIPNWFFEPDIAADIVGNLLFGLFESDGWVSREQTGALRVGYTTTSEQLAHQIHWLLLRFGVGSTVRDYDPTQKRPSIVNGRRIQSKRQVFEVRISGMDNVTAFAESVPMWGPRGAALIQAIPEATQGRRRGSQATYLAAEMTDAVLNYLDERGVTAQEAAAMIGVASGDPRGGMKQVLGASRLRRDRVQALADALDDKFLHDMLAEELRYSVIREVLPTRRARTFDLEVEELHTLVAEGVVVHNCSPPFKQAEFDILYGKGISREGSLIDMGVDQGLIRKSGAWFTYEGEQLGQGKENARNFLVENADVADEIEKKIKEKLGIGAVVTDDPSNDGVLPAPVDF
Arbovirus inh – antivirals against arbovirus infection, primary screen, cell-based, full library, 10K replicate subset; arbovirus infection cell-based antiviral screen; inhibition, % at 10 µM; 200,000 compounds, 0.37% hits; AID 1251, 2008;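 active = inhibition from about 30%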;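 also: bluetongue infection of BSR cells; cell survival read as ATP light after 72 h; 0% = infected wells without compound and 100% = uninfected wells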
Arbovirus inh repeat – further read-out of Arbovirus inh, marked with its call; inhibition, %; measured here: 10K subset replicate screen; many hits read low in the repeat;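 first of two repeat runs on a subset; 0% = infected and 100% = uninfected wells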
* marks the source's active call; other numbers are inactive results; ? = inconclusive; / = no result given; & = joins results of further samples.

SMILES	Mtb betalactam	YopH PTP inh	Mtb growth	RecA intein inh	Arbovirus inh	others
CC(C)(C)n1nnnc1C(c1cccs1)N(Cc1ccccc1)Cc1cccnc1 (stereo not drawn)	1	-2	0%	6.6	-19
Cn1c(SCc2ccccc2)nnc1-c1ccc2nonc2c1	-6	/	-8%	-0.5	/
COc1ccc(NC2SC(=O)N(C)C2=O)cc1 (stereo not drawn)	76	/	?	-3.8	-20
O=C(CCSc1ccccc1)Nc1nnc(-c2ccccc2)o1	76	-7	>100µM*	1.9	-3	Arbovirus inh repeat=-10
Cc1cc(-c2ccc(Cl)cc2)n2nc(N)nc2n1	4	-3	5%	-2.2	0
OCC[C@@H]1C[C@@H](O)[C@H](O)[C@]2(Cc3ccccc3CCO2)O1	-3	/	/	-7.6	/
CCOc1ccccc1N1CCN(Cc2ccc(OC)c(OC)c2OC)CC1	-8	-2	2%	-11	-14
COc1ccccc1NC(=S)NCCN1CCOCC1	7	-14	2%	-2.6	2
CCCN1CCN(S(=O)(=O)c2ccc(OC)c(Br)c2)CC1	-3	-24	2%	-1.3	4
O=C(Nc1c(-c2ccccc2)nc2ccccn12)c1ccco1	-13	-28	-3%	-0.6	25
COc1ccc(C(=O)N2CC=C(c3ccccc3)CC2)cc1S(=O)(=O)N1CCOCC1	-2	-28	7%	-0.9	1
COc1ccccc1CN(C)C(=O)c1cc2ccccc2o1	3	/	/	4.3	/
O=C(CSc1ncnc2nc[nH]c12)c1ccccc1	2	-3	6%	-0.5	2
CN(C)C(CNC(=S)Nc1ccccc1Cl)c1cccnc1 (stereo not drawn)	3	/	8%	3.0	2
CN1C(=O)C(O)(CC(=O)c2cccc(-n3cccc3)c2)c2ccccc21 (stereo not drawn)	85	-7	-4%	3.2	-2
CC1CN(C(=O)COC(=O)c2nn(-c3ccccc3)c(=O)c3ccccc23)CC(C)O1 (stereo not drawn)	-6	/	-11%	-1.0	7
CCOc1cc(/C=N/Nc2nnc(C)n2N)ccc1O	0	/	/	-6.3	/
COc1ccc(N2CCN(CC(O)COc3ccc([N+](=O)[O-])cc3)CC2)cc1 (stereo not drawn)	0	-21	-2%	-6.0	2
O=C1CC(=O)Nc2cc(S(=O)(=O)N3CCOc4ccccc43)ccc2N1	4	/	/	-1.4	/
Cc1cc(C(=O)OCC(=O)Nc2nc(-c3ccccc3)cs2)c(C)o1	2	-35	4%	-1.3	5

Of the compounds above, these contain a halogen:
SMILES	Mtb betalactam	YopH PTP inh	Mtb growth	RecA intein inh	Arbovirus inh	others
Cc1cc(-c2ccc(Cl)cc2)n2nc(N)nc2n1	4	-3	5%	-2.2	0
CCCN1CCN(S(=O)(=O)c2ccc(OC)c(Br)c2)CC1	-3	-24	2%	-1.3	4
CN(C)C(CNC(=S)Nc1ccccc1Cl)c1cccnc1 (stereo not drawn)	3	/	8%	3.0	2

Remaining list, next part
SMILES	Mtb betalactam	YopH PTP inh	Mtb growth	RecA intein inh	Arbovirus inh	others
Cc1[nH]c2ccc(C(=O)NCCCN(C)C3CCCCC3)cc2c1C	-2	/	/	-0.3	/
Cc1ccc2c(c1)C(c1ccncc1)=NNC(c1ccc(F)cc1)=N2	9	/	5%	4.4	2
CCOCCCNC(=O)C(c1ccc(OC)cc1)N(Cc1ccc2c(c1)OCO2)C(=O)c1ccccn1 (stereo not drawn)	-2	/	1%	-1.4	6
COc1ccccc1OCCCCCc1c(C)n[nH]c1C	46	-40	1%	1.4	17
O=C(CNC1C(=O)Nc2ccccc21)Sc1ccccc1 (stereo not drawn)	2	31	-8%	6.7	-8
CCOC(=O)COc1cc(=O)n(CC)c2ccccc12	66	52*	7%	-0.6	3
FC(F)(F)c1cccc(N2CCN(c3nnnn3-c3ccccc3)CC2)c1	-6	-20	10%	4.4	0
CCOC(=O)C1=C(COCCN)NC(C)=C(C(=O)OC)C1c1ccccc1Cl (stereo not drawn)	1&3&-3	/	-16%	-15&-11	/
CC(C)CNC(=O)c1ccc(NC(=O)c2ccccc2[N+](=O)[O-])cc1	0	-20	-4%	0.2	4
COc1ccc(OC)c(CNc2nc3ccccc3n2CCN2CCCCC2)c1	9	-21	0%	0.4	18
COc1cccc(C(=O)NCCS(=O)(=O)NCC2CCCO2)c1 (stereo not drawn)	-4	/	/	1.2	/
O=C(NCCOC(=O)C1COc2ccccc2O1)c1cccnc1 (stereo not drawn)	-6	-32	6%	-1.1	-2
C#CCOc1coc(COC(=O)c2ccccc2)cc1=O	0	/	/	-0.8	/
CNC(=S)N(Cc1ccc2c(c1)OCO2)C1CC(=O)N(c2ccccc2)C1=O (stereo not drawn)	2	-2	4%	0.2	-5
Cc1cc(C)n(CC(C)Nc2nc3nonc3nc2N2CCCCC2)n1 (stereo not drawn)	-1	/	-8%	4.2	1
CCCC(=O)C1=C(O)C(C(=O)OC)C(C)(C)CC1=Nc1ccccc1 (stereo not drawn)	-7	-10	1%	3.2	-1	Arbovirus inh repeat=3
CCOc1cc(C(=O)OCC(=O)Nc2cc(C)on2)ccc1OCC(C)C	1	/	8%	-1.4	10
COc1ccccc1N1CCN(C(=O)Nc2cccc(C)c2)CC1	-10	-15	1%	1.5	3
Cc1ccc(S(=O)(=O)CCN2CCC(O)(c3ccccc3)CC2)cc1	4	/	/	-2.0	/
CNC(=O)C(=O)Nc1ccc(C)cc1C	-4	/	7%	-1.4	4
O=C(c1cc(-c2ccc(Cl)cc2)on1)N1CCOCC1	0	-14	0%	0.7	2
COc1ccc2c(c1)[nH]c1c(=O)n(CCCn3ccnc3)cnc12	-19	1	-1%	0.2	-3
CCC(CC)NC(=O)c1cccc([N+](=O)[O-])c1C	6	2	3%	-0.6	-3
Cc1ccsc1/C=N/N1CCN(c2ccccn2)CC1	-13	/	-4%	0.3	/
CCOC(=O)c1cc(S(=O)(=O)NCC2CCN(Cc3cccc(C)c3)CC2)cn1C	4	/	/	-3.4	/
CC(=O)Nc1ccccc1C(=O)C(=O)Nc1ccc(F)c(Cl)c1	-4	/	/	-1.0	/
Cc1ccc(-n2c(SCC(N)=O)nnc2-c2ccco2)cc1	12	/	/	0.9	/
NC(=O)C[C@@H]1N[C@]2(C(=O)Nc3ccccc32)[C@@H]2C(=O)N(c3cc(C(F)(F)F)ccc3Cl)C(=O)[C@H]12	-6	-50	-8%	/	10
COc1ccc(-c2cc(C(=O)Nc3ccc(OC)cc3OC)no2)cc1	8	/	/	-2.2	/
O=C(c1ccc(NC2=NC3CS(=O)(=O)CC3S2)cc1)N(CCO)Cc1ccccc1 (stereo not drawn)	4	/	/	-2.1	/
CCOC(=O)CNC(=O)CSc1nnc(-c2ccccc2OC)n1CC	3	-43	-8%	4.1	4
O=C(CSc1nc2ccc(Cl)cc2[nH]1)Nc1ccc2c(c1)CCC2	93	-12	30µM*	5.4	9
COCCN1C(=O)N[C@@H](c2ccccc2)[C@H](C(=O)OC)[C@H]1C	-22	/	-2%	1.1	/
COn1c(-c2ccccc2)nc2c1CCc1nonc1-2	-9	0	-29%	-0.2	4
COc1ccc(C(=O)CC(=O)C(=O)Nc2ccc(Cl)cc2)cc1	1	/	/	3.5	/
Cn1c(CCc2ccccc2)nnc1SCC(=O)N1CCOCC1	-4	-3	-11%	-0.6	1
Cc1nc2ccccn2c1C(=O)CSc1ccccc1	-5	/	-1%	/	5
CN(C)S(=O)(=O)c1ccc(Cl)c(-c2nnc3n2CCCCC3)c1	3	/	5%	-1.3	20
COc1ccc(C)cc1S(=O)(=O)NC(C)c1cnn(-c2ccccn2)c1C (stereo not drawn)	-11	/	/	1.7	/
O=[N+]([O-])c1ccc(C=Nc2cccc3ccccc23)s1	29	/	61%	1.4	-14

7 compounds already listed, arranged by molar mass, smallest number first:
SMILES	Mtb betalactam	YopH PTP inh	Mtb growth	RecA intein inh	Arbovirus inh	others
COn1c(-c2ccccc2)nc2c1CCc1nonc1-2	-9	0	-29%	-0.2	4
O=[N+]([O-])c1ccc(C=Nc2cccc3ccccc23)s1	29	/	61%	1.4	-14
COCCN1C(=O)N[C@@H](c2ccccc2)[C@H](C(=O)OC)[C@H]1C	-22	/	-2%	1.1	/
COc1ccc2c(c1)[nH]c1c(=O)n(CCCn3ccnc3)cnc12	-19	1	-1%	0.2	-3
CCOC(=O)CNC(=O)CSc1nnc(-c2ccccc2OC)n1CC	3	-43	-8%	4.1	4
COc1ccc(C)cc1S(=O)(=O)NC(C)c1cnn(-c2ccccn2)c1C (stereo not drawn)	-11	/	/	1.7	/
NC(=O)C[C@@H]1N[C@]2(C(=O)Nc3ccccc32)[C@@H]2C(=O)N(c3cc(C(F)(F)F)ccc3Cl)C(=O)[C@H]12	-6	-50	-8%	/	10

Additional structures follow.
SMILES	Mtb betalactam	YopH PTP inh	Mtb growth	RecA intein inh	Arbovirus inh	others
COc1ccc(NC(=S)N2CCCC(CO)C2)c(OC)c1 (stereo not drawn)	-2	-27	-5%	/	7
COc1cc(C(=O)O/N=C(\N)c2ccncc2)cc(OC)c1OC	-3	-53	0%	1.3	2
Cc1ccc(C(NC(=O)NN2CCN(C)CC2)C(Cl)Cl)cc1F (stereo not drawn)	-4	/	/	-1.3	/
O=Cc1ccc(N2Cc3ccccc3C2)cc1	7	/	/	2.4	/
COc1ccc(N2C(=O)CC(N(CCc3ccccc3)C(=O)c3ccccc3)C2=O)cc1 (stereo not drawn)	7	/	3%	1.2	/
O=S(=O)(N1CCOCC1)N1CCN(c2ccccc2F)CC1	4	-37	9%	2.8	9
O=C(O)c1cccc2c1C(=O)N(c1ccccc1)C2	0	/	/	0.8	/
Cc1c(C(=O)Nc2ccccc2)cnn1-c1ccccc1	-1	/	/	3.4	/
CCN(C(=O)C1CCCN(c2nc(-c3ccc(OC)cc3)no2)C1)c1ccc(OC)cc1 (stereo not drawn)	?	/	/	7.9	/
Cc1nn(Cc2ccc(C(=O)N3CCOCC3)o2)c(C)c1Br	-3	-9	1%	-1.8	4
CCC(C)[C@H](NC(=O)Nc1cccc(Cl)c1)C(=O)O (stereo partly drawn)	4	-5	-2%	-3.2	6
Cc1cccc(C2c3[nH]c4ccccc4c3CCN2C(=O)Cc2n[nH]c(C)n2)n1 (stereo not drawn)	-1	/	2%	-1.2	0
CSCC[C@H](NC(=O)OC(C)(C)C)c1nnc(SCC(=O)Nc2ccc(C)cc2C)o1	5	-3	4%	1.8	4
CC1SCC(=O)N(CC(=O)NCc2ccccc2)C1=O (stereo not drawn)	-7	-13	-9%	0.0	-3
Cc1ccc(SCC(=O)OCC(=O)NCc2cccs2)cc1	2	/	/	1.6	/
COc1ccc(NC(=O)c2ccc(CNc3c(NC4CCCCC4)c(=O)c3=O)cc2)c(OC)c1	4	-18	4%	-5.6	5
CSC1=NC2(C[C@H]2c2ccccc2)C(=O)N1C (stereo partly drawn)	6	/	/	-0.4	/
COc1ccccc1NC(=O)CN(c1ccc([N+](=O)[O-])cc1)S(=O)(=O)c1ccccc1	2	-16	3%	5.8	-10
Cc1nc(NC(=O)c2ccccc2)sc1C1(C)CC(c2c(Cl)cccc2Cl)=NO1 (stereo not drawn)	/	/	50%	14	/
COc1cccc(-c2nc(CSCC(=O)NCC3CCCO3)c(C)o2)c1 (stereo not drawn)	-2	-42	3%	1.5	2

Overlap with the part before: three compounds, then new ones.
SMILES	Mtb betalactam	YopH PTP inh	Mtb growth	RecA intein inh	Arbovirus inh	others
COc1ccccc1NC(=O)CN(c1ccc([N+](=O)[O-])cc1)S(=O)(=O)c1ccccc1	2	-16	3%	5.8	-10
Cc1nc(NC(=O)c2ccccc2)sc1C1(C)CC(c2c(Cl)cccc2Cl)=NO1 (stereo not drawn)	/	/	50%	14	/
COc1cccc(-c2nc(CSCC(=O)NCC3CCCO3)c(C)o2)c1 (stereo not drawn)	-2	-42	3%	1.5	2
COc1ccc(C(=O)n2nc(C)c(Br)c2C)cc1	-2	-11	-12%	2.9	1
COc1ccc(S(=O)(=O)N2CCC(C(=O)N3CCCCC3)CC2)cc1OC	-5	-8	-7%	/	10
O=C1c2cccc([N+](=O)[O-])c2C(=O)N1CCO	-2	/	-8%	/	0
CCc1cccc(CC)c1NC(=O)COC(=O)c1cccc(-c2ccc(OC(C)=O)cc2)c1	5	8	1%	-0.7	-7
CCCCCOC(=O)C1[C@H]2C(=O)N(c3ccccc3CC)C[C@]23C=C[C@H]1O3 (stereo partly drawn)	-16	-30	-5%	3.2	5
O=C(Cc1ccccc1)Nc1ccccc1C(=O)O	6	-41	-10%	0.0	5

Screens as filed in PubChem.

Some of the compounds tested; rates above refer to the full screens.
